Assay outcomes from PubChem.
VACV E9 pol inh – blocks vaccinia virus processive DNA synthesis. normalized absorbance, % (concentration not given with the values). in vitro processive DNA synthesis, absorbance read-out; stronger effect = lower value; some inactives read as strong as hits. hit rate 0.94% among 46,000;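 active = replicate mean up to 90% and picked by the depositor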;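 note: 100% = median of the test wells of a plate; 100 nL library stock went into each well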
* hit, by the source's call. Only part of the results is shown, so the mix of outcomes need not match the whole.

SMILES	VACV E9 pol inh
CSc1sc(-c2[nH]ncc2Br)c2c1C(=O)CC(C)(C)C2	76
O=C(Nc1c2c(nn1-c1cccc(Cl)c1)CS(=O)C2)C1CCCC1 (stereo not drawn)	100
CCOc1ccc(S(=O)(=O)NC(C)C)cc1	100
Cc1ccccc1-c1nnc(CN2CCCC2)o1	104
CC12CCC3C(CC=C4CC(OC5CCCCO5)CCC43C)C1CCC2=O (stereo not drawn)	100
Cc1ccc(CCNC(=O)c2cc3c(=O)[nH]c4ccc(C)cc4c3s2)cc1	103
Cc1c(C(=O)O)oc2c1C(=O)CCC2	104
Cc1ccc(Oc2c(C)nc(C)nc2OC(=O)N(C)C)cc1	101
COC(=O)C1=C(O)c2ccccc2S(=O)(=O)N1	97
COc1ccc(C)cc1S(=O)(=O)N1CCN(c2ccccc2)CC1	100
CCOC(=O)c1c(C)sc2c3c([nH]c12)CCCC3	99
Cc1ccc2nsnc2c1S(=O)(=O)NC1CC1	99
Cc1ccc(-c2csc3nc(C)n(-n4cccc4)c(=O)c23)o1	104
CC1CCCC(C)N1C(=O)COC(=O)c1ccccc1I (stereo not drawn)	79
N#CC1=C(N)N(N2CCOCC2)C2=C(C(=O)CC(c3ccccc3)C2)C1c1ccccc1Cl (stereo not drawn)	100
O=C(Nc1ccccc1Sc1ncnc2sc3c(c12)CCCC3)c1cccs1	99
CC(C)C1Nc2ccc(C(F)(F)F)cc2NC1=O (stereo not drawn)	88
Cc1cccc(-c2nnc(NC(=O)c3c(F)cccc3F)s2)c1	101
CC(=O)Nc1sc(Cc2ccccc2)c(C)c1C(N)=O	97
Brc1ccc(-c2nnc3sc(-c4cccs4)nn23)cc1	102
CN(C)CCC(c1ccc(Cl)cc1)c1ccccn1 (stereo not drawn)	100
O=C(Nc1ccccc1)OC1CCCC1	95
CCN(c1nc(C)cc(OC)n1)S(=O)(=O)c1ccc(C)cc1	100
CC(C)Cc1ccc(C(C)c2nc3ccccc3[nH]2)cc1 (stereo not drawn)	100
Nc1cccnc1-n1nc(C(F)(F)F)cc1C(F)(F)F	110

4 entries from above, in markdown:
| compound | VACV E9 pol inh |
| --- | --- |
| CC(=O)Nc1sc(Cc2ccccc2)c(C)c1C(N)=O | 97 |
| Brc1ccc(-c2nnc3sc(-c4cccs4)nn23)cc1 | 102 |
| CN(C)CCC(c1ccc(Cl)cc1)c1ccccn1 (stereo not drawn) | 100 |
| O=C(Nc1ccccc1)OC1CCCC1 | 95 |

The main list resumes with the 6 entries that preceded the break.
SMILES	VACV E9 pol inh
Brc1ccc(-c2nnc3sc(-c4cccs4)nn23)cc1	102
CN(C)CCC(c1ccc(Cl)cc1)c1ccccn1 (stereo not drawn)	100
O=C(Nc1ccccc1)OC1CCCC1	95
CCN(c1nc(C)cc(OC)n1)S(=O)(=O)c1ccc(C)cc1	100
CC(C)Cc1ccc(C(C)c2nc3ccccc3[nH]2)cc1 (stereo not drawn)	100
Nc1cccnc1-n1nc(C(F)(F)F)cc1C(F)(F)F	110
CC1C(O)C(N(C)C)CC2COCC21 (stereo not drawn)	100
C(=Nc1ccc(N2CCOCC2)cc1)c1ccc2c(c1)OCO2	98
O=C(O)CCC(=O)Nc1nc(-c2ccc(Br)cc2)cs1	99
O=C1C2C3C=CC(C3)C2C(=O)N1c1ccccc1 (stereo not drawn)	100
COC(=O)c1sc(-c2cccs2)cc1NS(=O)(=O)c1ccc(C)cc1	101
FC(F)(F)c1cc(Oc2ccccc2)nc(-c2ccccn2)n1	103
O=C(Cn1ncn2cccc2c1=O)N1CCCCC1	98
O=C(O)CCN1C(=O)/C(=C/c2ccc(-c3ccccc3Cl)o2)SC1=S	97
CN(C)C(=O)c1cc2c(=O)n3ccccc3nc2n1C	91
CCOC(=O)c1c(NC(=S)N2CCc3ccccc32)sc2c1CCN(C(=O)OCC)C2	99
CN1/C(=C\C=C(/C#N)c2nc3ccccc3[nH]2)C(C)(C)c2ccccc21	101
OCc1nc(-c2cc(C(F)(F)F)cc(C(F)(F)F)c2)cs1	99
COc1cc(CN(C(=S)NCC(=O)N2CCCC2)C2CCCC2)cc(OC)c1OC	107
CC(C)N1CC2(c3ccccc31)N1CC3(C)CN2CC(C)(C1)C3=O (stereo not drawn)	101
O=C(Nc1ccc(N2CCOCC2)cc1)c1cc2cc(Cl)ccc2[nH]1	98
COc1cccc(C(=O)Nc2ccc(-c3csc(C)n3)cc2)c1	101
CC(=O)Nc1nonc1-c1nc2ccccc2n1Cc1ccccn1	100
CCc1ccc(NC(=O)CSc2nncn2C)cc1	100
O=C1CSC(=S)N1c1cccc(O)c1	101
O=C(Nc1ccccc1)c1cc2c(=O)n3ccccc3nc2s1	82
CCC(C#N)C12CC3CC(CC(C3)C1)C2 (stereo not drawn)	100
CCCOC(=O)c1c(N)sc2c1CCCC2	100
COC(=O)Cn1c2c(c3cc(C)ccc31)CCCC2	100
O=C1C2ON(c3ccccc3)C(c3ccco3)C2C(=O)N1c1ccccc1 (stereo not drawn)	100
C/C(C/C(C)=C1/SC(=S)NC1=O)=C1\SC(=S)NC1=O	93

Entries listed so far that contain a COOH group (3):
SMILES	VACV E9 pol inh
Cc1c(C(=O)O)oc2c1C(=O)CCC2	104
O=C(O)CCC(=O)Nc1nc(-c2ccc(Br)cc2)cs1	99
O=C(O)CCN1C(=O)/C(=C/c2ccc(-c3ccccc3Cl)o2)SC1=S	97

(more compounds)
SMILES	VACV E9 pol inh
Fc1ccc(-c2nnc(CSCc3cccc4ccccc34)o2)cc1	101
Cc1cc(C2CCCCC2)ccc1O	101
COC(=O)c1cc(C(=O)Cc2ccccc2)c[nH]1	93
CCOC(=O)C1=C(CNc2cccnc2)NC(=O)NC1c1ccccc1 (stereo not drawn)	101
COc1ccc(CNc2nc(-c3cccnc3)nn2S(C)(=O)=O)cc1	108
Cc1nnc(NC(C)C)s1	106
CCOC(=O)c1c(NC(=O)CN2C(=O)S/C(=C/c3ccc(F)cc3)C2=O)sc2c1CCCC2	100
COc1ccc(NC(=O)NCc2noc3ccc(C)cc23)c(OC)c1	103
Oc1c(C(Nc2cccc(Cl)c2)c2cccnc2)ccc2cccnc12 (stereo not drawn)	108
O=C(O)CC(Cc1ccc(Cl)cc1)C(=O)Nc1ccccc1 (stereo not drawn)	102
COc1cccc(/C=N/n2cnc3sc4c(c3c2=O)CCCC4)c1	99
Cc1ccsc1CCN1CSC2=C(C#N)C(c3ccc(Cl)cc3)CC(=O)N2C1 (stereo not drawn)	64
COc1ccc(Br)cc1CNC(=O)c1cc2c(=O)[nH]c3ccccc3c2n1C	104
CCOC(=O)c1c(-c2ccccc2)oc2ccc(OCC(N)=O)cc12	100
O=S(=O)(Nc1ccccn1)c1ccc2c(c1)OCCO2	101
S=c1n(CN2CCOCC2)nc2n1CCCCC2	100
O=C(Cc1nc(=O)c2ccccc2s1)Nc1ccccc1	108
Cc1cn(S(=O)(=O)c2ccc(Br)c3ccccc23)cn1	97
COc1ccc(OC2C(=O)N(Cc3ccc(F)cc3)C2c2ccc(OC)c(OC)c2)cc1 (stereo not drawn)	101
O=S(=O)(Nc1ccc2c(c1)oc1ccccc12)N1CCCC1	100
O=C(CCC(=O)c1ccc(Cl)cc1)Nc1c(F)cccc1F	103
COc1cccc(OC)c1C(=O)Nc1c(C)c(N2CCCC2)cc2c1C(C)(C)CC2(C)C	118
Nc1[nH]ncc1S(=O)(=O)c1ccccc1	87
Cc1ccc(NS(=O)(=O)c2c(C(C)C)cc(C(C)C)cc2C(C)C)cc1	100
NC(=O)C1CCN(CN2C(=O)c3ccccc3C2=O)CC1	85

(next part)
SMILES	VACV E9 pol inh
CCN(CC)CCNc1nc(C)cc(C)n1	102
CCCCC/C=C\C/C=C\C/C=C\C/C=C\CCCCCC(=O)O	99
N#Cc1nc(N2CCCC2)nc(N(c2ccccc2)c2ccccc2)n1	100
N#Cc1c(NC(=O)c2cccnc2)sc2c1CCCC2	99
COc1ccc(-c2csc(-n3nc(C)cc3C)n2)cc1	106
CN(C(=O)CSc1ccc(Cl)cc1)c1ccccc1C(=O)NC1CCCCC1	93
O=C(O)CCCC(=O)N1CCN(c2ncccn2)CC1	102
CN1CCCC(OC(=O)c2ccco2)C1 (stereo not drawn)	102
CC(C)c1nnc(NC(=O)c2ccccc2C(F)(F)F)s1	95
CC(C)(C)C(=O)CSc1nncc2ccccc12	105
NC(=O)c1cc2ccccc2oc1=Nc1ccc(Br)cc1	112
COc1cc(Br)cc(C=Nc2ccccc2)c1O	111
COc1ccc2c(c1OC)C(=O)N(c1ncn[nH]1)C2	100
CCOc1ccc(NC(=O)CCOc2ccccc2)cc1	99
COc1ccc(NC2CC(C)Nc3ccc(OC)cc32)cc1 (stereo not drawn)	103
CCc1nn(CC(=O)NCCc2ccc(S(N)(=O)=O)cc2)c(=O)c2cc3occc3n12	101
O=C1OC(c2cccc(F)c2)=N/C1=C\c1cccc2ccccc12	100
COc1cccc(CC(Cc2nc3ccccc3[nH]2)c2nc3ccccc3[nH]2)c1 (stereo not drawn)	96
CN1C(=O)C(C)(C)c2cc(S(=O)(=O)N(C)Cc3ccco3)ccc21	105
Cc1c(CNC(C)C23CC4CC(CC(C4)C2)C3)c(C(=O)O)c(C)n1Cc1ccccc1 (stereo not drawn)	103
COc1cc(NC(C)=O)cc(OC)c1OC	100
Nc1nnc(CCN2CCCCC2)s1	100
N#CCN(CC#N)C(=O)c1ccccc1	106
CCCc1cc2c(=O)c(-c3ccc4c(c3)OCO4)c(C)oc2cc1OC(C)=O	99
O=C(CCC(=O)c1ccc(Cl)cc1)OCc1ccc(F)cc1	102

Taken from above:
In VACV E9 pol inh, Cc1ccsc1CCN1CSC2=C(C#N)C(c3ccc(Cl)cc3)CC(=O)N2C1 (stereo not drawn) has 64
In VACV E9 pol inh, COc1ccc(C)cc1S(=O)(=O)N1CCN(c2ccccc2)CC1 has 100
In VACV E9 pol inh, Brc1ccc(-c2nnc3sc(-c4cccs4)nn23)cc1 has 102
In VACV E9 pol inh, CC(C)c1nnc(NC(=O)c2ccccc2C(F)(F)F)s1 has 95

(list continues)
SMILES	VACV E9 pol inh
CC(NC(=O)COc1ccccc1)C1COc2ccccc2O1 (stereo not drawn)	100
c1cc2c3c(cccc3c1)NC(c1ccncc1)N2	93
Cc1ccc2c(CN(Cc3cccs3)C(C)C)cc(=O)oc2c1	98
CC(=O)Oc1ccc2occ(C(=O)c3cc4ccccc4o3)c2c1	100
CS/C(=N\S(=O)(=O)c1cc(C(F)(F)F)cc(C(F)(F)F)c1)N1CCOCC1	99
CSc1ncccc1C(=O)NCc1ccccc1C(F)(F)F	101
COc1ccc(CNCCC2(Cc3ccccc3)CC(C)N(C)CC2C)cc1OC (stereo not drawn)	103
CSc1nc2ccccc2n1CC(=O)N(C)C1CCCCC1	99
Cc1cccc(Cl)c1-n1sc(=O)n(CC2CC2)c1=O	100
Cc1cc(C)c(S(=O)(=O)NCc2ccc(C(=O)NCCc3ccc(Cl)cc3)cc2)c(C)c1	100
COc1ccccc1C(=O)Nc1nnc(-c2ccccc2)o1	104
NS(=O)(=O)c1ccc(-c2ccc(/C=C3\SC(=S)N(Cc4ccccc4)C3=O)o2)cc1	100
CC(=O)Oc1ccc2c(c1)CCC1C2CC[C@@]2(C)C1CC[C@@H]2OC(C)=O (stereo partly drawn)	104
CCNc1nc(NCC)nc(SCC(=O)c2ccccc2)n1	97
CCc1nn(CC(=O)NCc2ccc(F)cc2)c(=O)c2cc3sc(C)cc3n12	96
Cc1nn(-c2ccccc2)c2sc(C(=O)N3CC(C)OC(C)C3)cc12 (stereo not drawn)	91
NC(=O)Nc1ccc(C(=O)O)cc1	100
CCOc1ccc(NC(=O)CSc2nnnn2CC(=O)O)cc1	100
Cc1ccc(-n2nc3c(c2NC(=O)C(C)C)CS(=O)(=O)C3)cc1	100
O=C(O)c1[nH]c2ccccc2c1CNC1CCCC1	97
N#Cc1c(/N=C\c2ccc(O)cc2O)sc2c1CCCC2	100
c1ccc2sc(NC3=NCN(C4CCCCCC4)CN3)nc2c1	97
O=C(CCc1ccccc1)N1CCCN(C(=O)CCc2ccccc2)CC1	99
Cc1cccc(Oc2cc(C)nc3ccc(C)cc23)c1	100
CCC(CC)C(=O)OCc1ccc(C#N)cc1	86

New compounds follow:
SMILES	VACV E9 pol inh
OCCN(C=NC1=NN(c2ccccc2)CC1)CCO	101
CN(CC(O)COCc1ccc2c(c1)OCO2)C1CCCCC1 (stereo not drawn)	96
O=S(=O)(Cc1ccccc1)Nc1nc2ccccc2s1	95
Cc1ccc(C(=O)CC(c2cccs2)S(=O)(=O)c2ccccc2)cc1 (stereo not drawn)	102
Cc1ccc2cc(C(N)=O)c(=N)oc2c1	100
COc1ccc(-c2c(C)oc3ccc(C)cc23)cc1	100
Cn1cccc1CN1CCS(=O)(=O)CC1	117
O=C(CSc1ncnc2sc3c(c12)CCCC3)c1ccco1	100
O=C(NC(=O)c1c(Cl)cccc1Cl)Nc1nc2cc(F)ccc2s1	93
COc1cc(/C=C(\C#N)C(N)=O)cc(CSc2nc3ccccc3s2)c1O	100
C=CC[n+]1cccnc1N	102
O=C1OCCC1Sc1nc2sc3c(c2c(=O)[nH]1)CCC3 (stereo not drawn)	100
COc1ccc(S(=O)(=O)n2ccc(C)n2)cc1C	103
Cc1nc2nc(CNC(=O)OC(C)(C)C)nn2c(C)c1CCC(=O)Nc1ccc(F)cc1	107
O=C(/C=C/c1ccccc1)OCc1cncs1	112
O=C(Nc1cc(C(F)(F)F)ccc1N1CCCCC1)c1cc[n+]([O-])cc1	99
CCOC(=O)C1CCN(c2ncnc3c2cnn3-c2ccccc2)CC1	103
COc1ccc(-c2noc(N3CCCC(C(=O)Nc4cccnc4)C3)n2)cc1 (stereo not drawn)	103
COC1CCCCC1NS(=O)(=O)c1ccc(Cl)cc1 (stereo not drawn)	100
O=C(Cc1nc2ccccc2[nH]1)NCc1ccco1	106
